GIV-Gai inh: inhibitors of GIV GBA-motif binding to rat Galpha-i3; 210,000 compounds, 0.42% hits; Galpha-i3/FITC-GIV peptide fluorescence polarization, 90 min; stronger effect = lower value; scaled: aluminum fluoride 0%, vehicle 100%; P08753; percent of control (FP), % (no concentration beside the values);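 active = replicate mean at 85% of control or lower, very high polarization wells dropped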;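 note: wells of about 15 µL received 100 nL stock; the first replicate is given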
Target sequence (P08753 whole entry, looked up): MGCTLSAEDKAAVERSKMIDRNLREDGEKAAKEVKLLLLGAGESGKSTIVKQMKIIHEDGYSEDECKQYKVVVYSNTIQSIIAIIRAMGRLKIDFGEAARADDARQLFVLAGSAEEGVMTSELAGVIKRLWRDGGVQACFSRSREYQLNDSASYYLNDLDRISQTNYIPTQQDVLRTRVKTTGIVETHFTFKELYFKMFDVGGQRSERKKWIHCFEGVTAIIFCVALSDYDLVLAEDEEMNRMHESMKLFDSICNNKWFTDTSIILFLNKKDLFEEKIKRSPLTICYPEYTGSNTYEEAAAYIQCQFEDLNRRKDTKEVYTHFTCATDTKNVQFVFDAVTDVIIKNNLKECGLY
Sa growth 42C: S. aureus growth inhibition; S. aureus RN4220 growth, OD600, 20 h, 42 °C; stronger effect = lower value; AID 720641; 170,000 compounds, 0.53% hits; relative growth, % (concentration not given with the values);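 active = growth at 42 °C up to 50% and 20 or more points under that at 30 °C, or under 10% at both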;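 note: 300 nL library stock went into each well; scaled to the means of positive and negative controls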
HCMV NEC inh: inhibitors of HCMV UL50-UL53 nuclear egress complex interaction | HTRF UL50-UL53 interaction, normalized percent inhibition | inhibition, % (concentration not given with the values) | 190,000 compounds, 0.15% hits;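 active = both replicates at 50% or more, plus weaker picks with an unusually low signal ratio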;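 note: stock transfer was 100 nL into about 20 µL; 0% = negative control wells and 100% = wells with untagged competitor protein; inactives centre near -12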
Sa growth 42C second temp: further read-out of Sa growth 42C, marked with its call; relative growth, %; measured here: growth at 30 °C;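 optical density after 20 h as mean of two plates; 100% = untreated growth and lower means inhibition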
* = called active by the depositor; · = no result given; & = joins results of further samples.

SMILES | GIV-Gai inh | Sa growth 42C | Sa growth 42C second temp | HCMV NEC inh
CCOc1ccc(CNC(=O)C2CCN(S(=O)(=O)c3c(C)noc3/C=C/c3ccc(C)cc3)CC2)cc1OC | 102 | 98 | 86 | ·
O=C(O)c1ccc2[nH]c3c(c2c1)CCCC3 | 100 | 90 | 88 | -15
CC(=O)Oc1c(C(C)(C)C)ccc(C(C)(C)C)c1O | 103 | 125 | 109 | -8
CCN(CC)CCC1S(=O)(=O)CC(c2ccccc2)CS1(=O)=O (stereo not drawn) | 101 | 98 | 92 | -27
OCC[N+]12CCCCC1[C@H](CO)CCC2 (stereo partly drawn) | 103 | 84 | 87 | -21
CC(C)Cn1cc(NC(=O)N2CCN(c3cccc(C(F)(F)F)c3)CC2)c2ccccc2c1=O | 103 | 98 | 87 | ·
Cc1cc(C)n(CCC(=O)NC2CCCc3ccccc32)n1 (stereo not drawn) | 98 | 97 | 84 | -22
O=C1c2ccccc2C(=O)N1CC12CC3CC(CC(C3)C1)C2 | 96 | 100 | 93 | ·
CC1CCN(c2nc3ccc(C(=O)NCc4ccc(Cl)cc4)cc3s2)CC1 | 105 | 102 | 93 | 6
O=C(O)CCC(=O)Nc1ccc2c(c1)OCCCO2 | 98 | 98 | 93 | -1
CCOc1ccc(C(=O)Nc2ccc(-c3nc4ccccc4o3)cc2)cc1Br | 69* | 90 | 80 | 7
CCOC(=O)c1cccc(NC(=O)c2ncoc2-c2ccco2)c1 | 106 | 95 | 100 | ·
CCOc1ccccc1OCc1nn2c(-c3ccccn3)nnc2s1 | 110 | · | · | 2
O=C1CC2CS(=O)(=O)CC2N1Cc1cccnc1 (stereo not drawn) | 98 | 109 | 96 | -12
CN1CCN(Cc2c3ccccc3cc3ccccc23)CC1 | · | 116 | 72 | -29
CCOC(=O)c1c(NC(=O)c2ccccc2Br)oc2cccnc12 | 104 | · | · | -1
Cc1nnsc1C(=O)Nc1cccc(C(F)(F)F)c1 | 101 | 102 | 92 | -6
CCN1CCN(C(=O)/C(C#N)=c2\s/c(=C\c3ccco3)c(=O)n2-c2ccc(Cl)cc2)CC1 | · | 93 | 94 | -20
O=C(O)CCC(=O)N1CC=C(c2ccccc2)CC1 | 102 | 98 | 79 | -45
CC(C)(C)c1ccc(C(=O)N2CCC(c3nc4ccccc4o3)CC2)cc1 | 103&108 | 100 | 91 | -16&-18
Cc1cc(C)nc(NC(=O)CSC(=S)N2CCOCC2)n1 | 104 | 99 | 87 | ·
Cc1ccc(Cn2cccc2CNS(C)(=O)=O)cc1 | 103 | · | · | -21
O=S1(=O)c2ccccc2NC(c2ccccc2Cl)N1Cc1c(F)cccc1Cl (stereo not drawn) | 100 | · | · | 1
CC(C)c1ccc(NC(=O)c2cc(S(=O)(=O)NCCC3=CCCCC3)ccc2F)cc1 | 105 | 114 | 70 | ·
CN(C)C(=O)Nc1cccc(O)c1 | 99 | 88 | 93 | -19
CC(=O)Nc1cccc(NC(=O)c2cc3c(=O)n4cccc(C)c4nc3n2C)c1 | 109 | 86 | 85 | -4
Cc1nnc(SCc2ccc(C#N)cc2)n1C1CC1 | · | 87 | 88 | -29
Cc1ccc(NC(=O)CSc2nnc3ccccn23)cc1 | 102 | 109 | 84 | ·
Oc1cccc(N=Cc2c[nH]c3ccc(Br)cc23)c1 | · | 96 | 93 | -6
COCC(C)N=Cc1c(O)[nH]c2ccccc12 (stereo not drawn) | 97 | 101 | 99 | -19
Cc1ccc(-c2cn3ccsc3n2)cc1 | · | 105 | 91 | -15
CC(C)c1ccc(NC(=O)C2CC(=O)N(c3ccccc3)C(=S)S2)cc1 (stereo not drawn) | 99 | 100 | 79 | -4
O=C(CN(Cc1ccco1)S(=O)(=O)c1ccc(Cl)cc1)N1CCCc2ccccc21 | · | 103 | 90 | -19
O=C1Oc2ccc3ccccc3c2C1(O)C(F)(F)F (stereo not drawn) | 102 | 85 | 77 | -9
O=C1CCCN1C(=O)CSc1n[nH]c(=O)n1CCc1ccccc1 | · | 94 | 98 | -10
CCn1ncc(Cl)c(Cl)c1=O | · | 98 | 79 | -38
Cc1cc(Cl)ccc1OCC1NCCS1 (stereo not drawn) | 102 | 101 | 89 | -15
Cc1cc2nn(-c3ccccc3)nc2cc1NC(=O)c1cccs1 | · | 101 | 89 | -8
Cc1ccc(CS(=O)(=O)c2cn(CC(=O)N3CCc4ccccc4C3)c3ccccc23)cc1 | 107 | · | · | 0
CCN(CC)CCCNCc1ccc2c(c1)n(C)c(=O)n2C | 105 | · | · | -6
COc1ccc(N2CCN(C(=O)c3cnc(SC)nc3C)CC2)cc1 | 104 | 117 | 99 | ·
O=C1C(O)=C(c2ccccc2)C(c2ccc(Br)cc2)N1Cc1ccccc1 (stereo not drawn) | 95 | · | · | -36
CCOC(=O)COc1ccc(C2=Nc3ccccc3NC(c3ccccc3)C2)cc1 (stereo not drawn) | 110 | 101 | 93 | -12
Cc1nn(-c2ccccc2)c(Cl)c1C1N2CCCN1CC2 (stereo not drawn) | 111 | 99 | 78 | 9
O=C(Cc1ccsc1)OC(C(=O)c1ccccc1)c1ccccc1 (stereo not drawn) | · | 94 | 94 | -18
CCOc1ccc(C(=O)Nc2ccc(S(=O)(=O)Nc3nc(C)cc(C)n3)cc2)cc1OC | 103 | 83 | 93 | 4
Cc1cc(C)cc(NC(=O)c2cnc3ccccn3c2=O)c1 | 103 | · | · | -26
Cc1ccc(C(=O)N2CCC(N3CCN(Cc4ccc(F)cc4)C(=O)C3=O)CC2)cc1F | 99 | · | · | -5
CN(C)c1ccc(NC(=O)CN2CCN(CC(=O)Nc3ccc(Br)cc3)CC2)cc1 | 105 | 112 | 87 | ·
CC12C=CC(C)(O1)C1C(=O)N(c3cccc4ccccc34)C(=O)C12 (stereo not drawn) | 106 | · | · | -28
O=c1c(Cc2ccccc2)c(O)c2cccc3c2n1CCC3 | 96 | 98 | 86 | -16
Cc1nc2cc(NC(=O)CCN3C(=O)NC4(CCCC4)C3=O)ccc2n1-c1ccccc1 | · | 93 | 85 | -21
Cc1ccc(C)c(NC(=O)CSc2c(C)n[nH]c2C)c1 | 108 | 109 | 84 | -8
CCC1(C)OC(c2ccc(Br)cc2)=Nc2ccccc21 (stereo not drawn) | · | 84 | 78 | -9
CSc1cccc(NC(=O)Cn2ncn3c(cc4ccccc43)c2=O)c1 | 104 | 116 | 86 | -41
Cc1cc(NC(=O)CSc2nc3ccccc3c(=O)n2CCO)n(-c2ccccc2)n1 | · | 91 | 86 | -14
COc1cccc(Cn2cc(S(=O)(=O)c3ccc(C)cc3)c(=O)c3cc4c(cc32)OCO4)c1 | 105 | 103 | 83 | -8
O=C(CC(F)(F)F)Nc1ccccn1 | 108 | 93 | 109 | 8
CCN1c2cc(C)ccc2-n2cccc2C12CCN(C(=O)c1ccc(OC)cc1)CC2 | 102 | · | · | 6
CCOC(=O)Cn1nc(-c2ccccc2)c2ccccc2c1=O | 98 | 94 | 90 | -8

The listing continues:
SMILES | GIV-Gai inh | Sa growth 42C | Sa growth 42C second temp | HCMV NEC inh
CC(C)(C)c1ccc(-c2[nH]nc(NS(=O)(=O)c3ccccc3)c2Br)cc1 | 103 | 91 | 75 | -43
CCC(CC)C(=O)Nc1cccc(-c2nc3cccnc3s2)c1C | 104 | 98 | 107 | 11
O=C(OCC(=O)N1CCCC1=O)C(c1ccccc1)c1ccccc1 | · | 130 | 101 | 6
Cc1cn[nH]c1C(F)(F)F | 102 | 103 | 81 | ·
COc1ccc(CNC(=O)CCc2c(C)nn(-c3ccc(N4CCCCC4)nn3)c2C)cc1 | 100 | 92 | 85 | ·
Cc1nnc(Sc2cc(C(=O)NCCc3ccccc3)c3ccccc3n2)s1 | 99 | 114 | 82 | ·
COc1ccc(C2N(C)c3ccccc3N2C)cc1 | 110 | 102 | 96 | -8
COc1ccc(NC(=S)N2CCCC(c3ccccc3)=N2)cc1 | 99 | 110 | 82 | 23
Cc1nc(/N=C(/N)NC(=O)Cc2ccccc2)nc2ccccc12 | 97 | 93 | 87 | -5
Cc1ccc(CSc2nc(=O)c3c(C)cc(C)nc3n2C2CC2)cc1 | 103 | 112 | 102 | ·
C=CCN(CC=C)S(=O)(=O)c1ccc(C(=O)Nc2ccccc2-c2nc3ccccc3[nH]2)cc1 | 100 | 90 | 96 | ·
CCOc1ccccc1Nc1ccc2cc(S(=O)(=O)N3CCCCC3)ccc2n1 | 112 | 128 | 97 | ·
CCc1ccc(NC(=O)CSc2nc(-c3cccc(OC)c3)nc3c2Cc2c(CO)cnc(C)c2O3)cc1 | 108 | 99 | 82 | ·
Cc1[nH]nc2nc(SCC(=O)NCCc3ccccc3)n(-c3ccccc3Cl)c(=N)c12 | 105 | 120 | 84 | ·
CC1CCC(C(=O)NC(Cc2c[nH]c3ccccc23)C(=O)NCc2cccnc2)CC1 (stereo not drawn) | 101 | 96 | 83 | ·
CCOC(=O)c1c(C)n(-c2ccccc2)c2ccc(OC(=O)c3cccc(Cl)c3)cc12 | 100 | 99 | 87 | -41
COc1ccc(OCC(=O)N(Cc2cccs2)c2ccc(OC)cc2)cc1 | 103 | 100 | 83 | -15
COc1cc(/C=C2\C(=O)N(c3ccc(Cl)c(C(=O)O)c3)N=C2C)cc(OC)c1OC | 99 | · | · | 63*
CC1(/[N+]([O-])=C/c2ccc(Br)cc2)CCCCC1=O (stereo not drawn) | 114 | 103 | 90 | -36
CCOc1ccc2nc(Cl)c(C3CC(c4ccc(C)cc4)=NN3C(=O)CCC(=O)O)cc2c1 (stereo not drawn) | 104 | 112 | 90 | -22
CCN(CC)c1ccc(/C=C2\C(=O)NC(=S)N(c3ccc(F)cc3)C2=O)c(O)c1 | 105 | · | · | -9
CCc1ccc(S(=O)(=O)c2cn(Cc3ccccc3F)c3cc(OC)c(OC)cc3c2=O)cc1 | 105 | 111 | 79 | -28
COc1ccccc1CN(C)C(=O)C1COc2ccccc2O1 (stereo not drawn) | · | 68 | 69 | -15
Cn1nc(-c2ccc(C(=O)Nc3ccc(F)cc3)cc2)c2ccccc2c1=O | 106 | 94 | 89 | -49
CSC1=NCCN1C(=O)c1ccc(S(=O)(=O)N2CCCC2)cc1 | 103 | 96 | 84 | -31
CCCCc1ccc(-n2nc3cc(C)c(NC(=S)NC(=O)c4ccco4)cc3n2)cc1 | 104 | 108 | 101 | -6
CCCCn1c2ccccc2c2nnc(SCC(=O)N=C3NC(=O)CS3)nc21 | 104 | 90 | 47 | ·
NC(=O)c1nn2c(C(F)(F)F)cc(-c3ccc(Br)cc3)nc2c1Cl | 101 | 107 | 90 | ·
CCC(=O)NCc1nc(-c2ccccc2)no1 | 112 | 98 | 96 | -10
COc1ccc(NC(=O)CSc2nc3ccccc3o2)cc1OC | 106 | · | · | -17

An excerpt of these results, field by field:
molecule: CCc1ccc(S(=O)(=O)c2cn(Cc3ccccc3F)c3cc(OC)c(OC)cc3c2=O)cc1
- GIV-Gai inh = 105
- Sa growth 42C = 111
- Sa growth 42C second temp = 79
- HCMV NEC inh = -28
molecule: COc1ccccc1CN(C)C(=O)C1COc2ccccc2O1 (stereo not drawn)
- GIV-Gai inh = ·
- Sa growth 42C = 68
- Sa growth 42C second temp = 69
- HCMV NEC inh = -15

Next entries:
SMILES | GIV-Gai inh | Sa growth 42C | Sa growth 42C second temp | HCMV NEC inh
C=CCSc1ncnc2c1sc1nc(CC)c3c(c12)CCCC3 | 110 | 86 | 92 | ·
O=C(CSc1nc2c(oc3ccccc32)c(=O)[nH]1)Nc1cccc(Cl)c1 | 98 | 84 | 58 | -14
COCCNC(=O)c1ccc(N2CC3CC(C2)c2cccc(=O)n2C3)c(NC(=O)c2ccc(F)cc2)c1 (stereo not drawn) | 107 | 95 | 86 | -39
O=C(COc1ccccc1)c1ccc(O)c(O)c1O | 99 | 66 | 57 | -48
O=C(O)c1ccc2c(c1)C(=O)N(c1ccccn1)C2=O | 104 | 88 | 97 | -39
Cc1ccc(S(=O)(=O)N2CCCc3cc(NC(=O)c4ccc(C(C)(C)C)cc4)ccc32)cc1 | 107 | 124 | 107 | ·
O=C(COC(=O)c1cc(=O)[nH]c(=O)[nH]1)Nc1ccccc1 | · | 118 | 98 | 2
CC1CC(NC(=S)NCc2csc3ccccc23)CC(C)(C)C1 (stereo not drawn) | 110 | 88 | 102 | 3
CCn1c(=O)n(-c2ccc(C)c(C)c2)c2nc(-c3ccc(C)cc3)nc(C(N)=O)c21 | 106 | · | · | -18
O=C(O)CCCC(=O)N1CCc2cc(S(=O)(=O)NCc3ccccc3)ccc21 | 108 | 94 | 94 | 12

Molecules shown so far containing a CF3 group:
SMILES | GIV-Gai inh | Sa growth 42C | Sa growth 42C second temp | HCMV NEC inh
CC(C)Cn1cc(NC(=O)N2CCN(c3cccc(C(F)(F)F)c3)CC2)c2ccccc2c1=O | 103 | 98 | 87 | ·
Cc1nnsc1C(=O)Nc1cccc(C(F)(F)F)c1 | 101 | 102 | 92 | -6
O=C1Oc2ccc3ccccc3c2C1(O)C(F)(F)F (stereo not drawn) | 102 | 85 | 77 | -9
O=C(CC(F)(F)F)Nc1ccccn1 | 108 | 93 | 109 | 8
Cc1cn[nH]c1C(F)(F)F | 102 | 103 | 81 | ·
NC(=O)c1nn2c(C(F)(F)F)cc(-c3ccc(Br)cc3)nc2c1Cl | 101 | 107 | 90 | ·
